# Autofluor counter = flagged as autofluorescent in microsphere protease counterscreen. compound autofluorescence counterscreen, microsphere flow cytometry; active compounds read high. fluorescence intensity (test concentration not listed). 3.1% of 360,000 active;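 active means at least 3 SD above the mean of all compounds, about 16000 in these data; inconclusive means too few beads counted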;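 further: 100 nL of 1 mM stock went into each well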
# BJeLR lethal = BJeLR cell viability loss | inhibition, % (no concentration beside the values) | BJeLR (HRASV12) viability, CellTiter-Glo ATP luminescence, 48 h; reference of the scale not given here | 0.17% of 300,000 active;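 active means replicate mean above 50%; inconclusive means above 50% but judged a plate artefact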;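 further: 50 nL library stock added to about 25 µL; numbers are from one replicate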
# ugtP null kill = compounds lethal to S. aureus RN4220 ugtP deletion mutant | OD600 growth, 16 h; some inactives read as strong as hits | growth inhibition, % (no concentration beside the values) | 0.54% of 330,000 active | AID 1259309;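 active means z-score under -3 and OD600 up to 0.15 on both plates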;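 further: plate controls were untreated wells for no effect and antibiotic for full effect; wells of about 80 µL received 100 nL stock; the first replicate is given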
# Sa RN4220 lethal = kills Staphylococcus aureus RN4220 | S. aureus RN4220 growth, OD600, 16 h | inhibition, % (concentration not given with the values) | 0.33% of 330,000 active;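 active means z-score of -3 or lower and OD600 up to 0.18 on both plates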;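 further: plate controls were untreated cells for no effect and reference antibiotic for full effect; stock transfer was 100 nL into about 80 µL; one replicate is shown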
# Mtb hypoxia inh = Mtb hypoxia fluorescent reporter inhibition; M. tuberculosis hypoxia-regulated fluorescent reporter, fluorescence; 0.1% of 300,000 active; fluorescence inhibition, % (no concentration beside the values);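 active means 35 to 45% if threefold the growth effect, above 45% if 1.5-fold the growth effect; inactive means the rest, general growth blockers included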;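 further: wells of about 50 µL received 100 nL stock; 0% = vehicle wells and 100% = reference inhibitor wells; whole bacteria with a GFP reporter of the hypoxia response; strong numbers were not always called active; many hits fall short of the cut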
# PrP UTR inh = suppresses PrP 5' UTR mRNA reporter expression; cell-based PrP 5' UTR mRNA reporter, plate reader; inhibition, % (no concentration beside the values); 0.35% of 340,000 active; AID 488862;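 active means every replicate at 50% or more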;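 further: 0 = median of the neutral control wells; tested in H4 reporter cells; numbers are from one replicate; inactives centre near -14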
# Mtb hypoxia inh growth = further read-out of Mtb hypoxia inh, marked with its call; growth inhibition, %; measured here: M. tuberculosis growth (absorbance);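 0% = vehicle and 100% = reference antibiotic; read after six days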
# The depositor's hits bear a star; ? = inconclusive; · = not tested or not shown. Rows are unselected; about 4% have a hit in one of these screens.
SMILES,Autofluor counter,BJeLR lethal,ugtP null kill,Sa RN4220 lethal,Mtb hypoxia inh,Mtb hypoxia inh growth,PrP UTR inh
CCSc1sccc1C1C(C#N)=C(N)N(c2cccnc2)C2=C1C(=O)CC(C)(C)C2 (configuration not stated),15479,1,1,5.8,-12,0,-16
CCOc1cc(NS(=O)(=O)c2ccc(OC)cc2)c(OCC)cc1NC(C)=O,4221,2,2,-1.6,-3,-10,64*
COCCNC(=O)CN1C(=O)c2cccc3cccc1c23,3638,9,10,2.5,4,11,-17
Cc1ccccc1-n1c(SCC(=O)NC2CCS(=O)(=O)C2)nc2ccccc2c1=O (configuration not stated),·,·,-2,3.5,-3,-7,2
O=C(NN=C1CCN(Cc2ccccc2)CC1)c1ccccc1O,5493,2,7,0.0,12,5,42
O=C1N/C(=N\c2ccccn2)SC1Cc1ccccc1Cl (configuration not stated),5019,1,9,5.5,4,5,-10
Cc1ccc2c(COC(=O)C3CSC4(C)CCC(=O)N34)cc(=O)oc2c1C (configuration not stated),9074,·,6,8.9,5,8,-19
O=[N+]([O-])c1cc(C=NO)ccc1Oc1cccc(Cl)c1,·,·,-1,5.2,6,5,·
Cc1ccc(C(=O)NCC(=O)OC2CCCCC2=O)cc1C (configuration not stated),4281,·,0,3.0,7,0,-9
Cc1ccc(S(=O)(=O)N2CCCCCC2)cc1C(=O)NCc1ccccn1,3928,0,2,3.4,-6,10,-6
Cc1cccc(NC(=O)CNC(=O)Cn2ncc(Cl)c(Cl)c2=O)c1C,3016,·,-2,5.2,10,13,-21
OCCC1CN(Cc2cccc3c2OCO3)CCN1C1CCCC1 (configuration not stated),2207,-7,3,2.6,-1,3,-18
O=C(Cc1csc(NC(=O)Nc2ccc(Cl)cc2)n1)NC1CCCC1,·,-3,-23,-3.8,-9,0,-32
O=c1[nH]cnc(O)c1Nc1cccc(Cl)c1,3615,·,-5,-2.5,11,0,-12
O=C(NC(NC(=S)Nc1c(Cl)cccc1Cl)C(Cl)(Cl)Cl)c1cccc([N+](=O)[O-])c1 (configuration not stated),10559,-5,-26,-17,-13,-8,-18
CCOc1ccc(NC(=S)NCC(c2cccnc2)N2CCOCC2)cc1 (configuration not stated),2470,3,5,-0.7,-13,7,-16
COc1cc(NC(=O)C2=CC(c3ccc(C)cc3)=NS(=O)(=O)N2C)cc(OC)c1OC,5727,2,8,3.2,·,·,-19
Cc1cc(O)c(C(=O)/C=C/c2ccc(C(C)C)cc2)c(=O)o1,4410,-3,9,6.3,4,11,-24
COc1cc(SC)ccc1C(=O)Nc1nccs1,3767,2,3,10,-1,-8,24
O=c1c(CO)cc(CO)cc(CO)c1O,·,2,4,0.3,10,-7,-14

# Of the compounds above, these contain a nitro group on carbon.
SMILES,Autofluor counter,BJeLR lethal,ugtP null kill,Sa RN4220 lethal,Mtb hypoxia inh,Mtb hypoxia inh growth,PrP UTR inh
O=[N+]([O-])c1cc(C=NO)ccc1Oc1cccc(Cl)c1,·,·,-1,5.2,6,5,·
O=C(NC(NC(=S)Nc1c(Cl)cccc1Cl)C(Cl)(Cl)Cl)c1cccc([N+](=O)[O-])c1 (configuration not stated),10559,-5,-26,-17,-13,-8,-18

# (listing goes on)
SMILES,Autofluor counter,BJeLR lethal,ugtP null kill,Sa RN4220 lethal,Mtb hypoxia inh,Mtb hypoxia inh growth,PrP UTR inh
CCN(CC)C(=O)CSc1nc(O)cc(=O)n1CC,10456,-11,2,4.4,-1,4,-75
COc1ccc(-c2nnc3sc(-c4ccccn4)nn23)cc1,·,8,-8,9.4,·,·,·
COc1ccccc1C(=O)Nc1ccc(OCC(=O)N2CC(C)CC(C)C2)cc1 (configuration not stated),6678,·,-3,1.7,-1,-3,9
CCCc1nnc(NC(=O)C2CC(=O)N(C3CCCC3)C2)s1 (configuration not stated),5449,-10,4,-1.9,3,19,-13
COc1ccc(C(=O)C2CCCN(C(=O)c3cc(C)nc(C)n3)C2)cc1OC (configuration not stated),4759,2,0,6.5,7,6,-8
COc1ccc(S(=O)(=O)N2CCN(C)CC2)cc1NC(=O)c1ccccc1,3638,3,6,4.2,8,9,-11
O=C(NCCC1=CCCCC1)c1ccc(Cl)c([N+](=O)[O-])c1,2447,-1,1,-1.5,19,4,-31
c1coc(Cn2c(SCc3nc4ccccc4[nH]3)nnc2-c2cnccn2)c1,3347,-1,5,-1.0,3,1,-8
ON=C(CCc1ccccc1)CCc1ccccc1,3976,·,8,5.4,21,20,-24
CCOC(=O)N1CCN(CC(O)COC2CC(C)CCC2C(C)C)CC1 (configuration not stated),2841,-2,1,5.4,·,·,6
O=C(c1ccco1)N1CCN(C(=O)c2ccc(COc3ccc(F)cc3)o2)CC1,2412,5,9,0.5,5,-4,-12
O=[N+]([O-])c1ccccc1S(=O)(=O)Nc1cccc(-c2ccc(N3CCCC3)nn2)c1,?,0,-1,5.3,3,-2,-15
CCN1CCN(C(=O)c2c(-c3c(F)cccc3Cl)noc2C)CC1,8280,-3,-1,-0.6,-84,-12,-8
CC(=O)C[C@@H](O)CC(=O)[C@H]1OC(=O)[C@@H](C)C/C=C\Cc2ccccc21,3714,·,6,3.8,-6,-2,-3
O=C(O)c1cc(S(=O)(=O)NCCN2CCNC2=O)ccc1O,·,-2,-4,0.9,6,3,-66
Cc1cnc(CNC(=O)CC2C(=O)NCCN2Cc2ccccc2F)cn1 (configuration not stated),5347,0,1,0.8,0,-3,-6
CC(=O)NN=Cc1ccccc1OCCOc1cccc(C)c1,·,·,3,18,-3,4,·
CCCN1CCC(NC(=O)CCc2nnc(-c3ccccc3)o2)CC1,2672,-13,-1,3.8,2,6,10
O=c1c(Cc2ccc(F)cc2)c(O)ccn1CCCN1CCOCC1,4545,1,6,-1.1,5,5,-10
O=C(c1cc(C2CC2)on1)N1CCOCC1,5944,0,20,20,4,7,-11
NC(=O)NC(CC(=O)NNC(=O)c1cccs1)c1ccc(Cl)cc1 (configuration not stated),3441,·,8,5.0,16,11,-10
O=C(O)CC(CNS(=O)(=O)c1ccccc1)c1ccccc1 (configuration not stated),5985,0,8,0.1,·,·,13
C=CCC(=O)NC1CCCc2c1cnn2-c1cc(F)cc(F)c1 (configuration not stated),3385,-1,9,4.3,1,2,-55
O=S(=O)(c1ccc(Cl)nc1)N1CCCC1,3798,·,1,1.3,19,9,-6
O=c1c2c3c(sc2n(CCN2CCCC2)c(=O)n1Cc1ccco1)CCCCC3,?,1,10,-1.1,-7,-3,-7
CC(=O)Nc1cccc(NC(=O)c2ccc3[nH]c(C)c(C)c3c2)c1,6067,3,1,7.1,14,1,-34
C=CCNC(=O)O/N=C/c1csc([N+](=O)[O-])c1,3397,-5,·,·,·,·,-15
O=C(c1cc(Cl)ccc1[N+](=O)[O-])n1cnc2ccccc21,2176,-22,0,8.3,7,9,-26
O=C(O)/C=C/C(=O)NC1CC1,4394,0,-8,1.7,5,5,-1
CS(=O)(=O)N1CCc2cc(C(=O)Nc3ccccc3)ccc21,4347,-7,1,-0.4,8,1,-30
CC1CC(C)CN(CCCNC(=O)c2ccc3nc(N4CCOCC4)sc3c2)C1 (configuration not stated),4785,6,7,4.1,-7,-3,-10
CN(C)CC(O)COc1cc2ccccc2cc1C(=O)N1CCCCC1 (configuration not stated),9667,0,2,1.2,19,7,-30
CCN(CC)CCOc1cccc(C(C)C)c1,3125,3,-1,-12,14,-2,-18
O=C(CSc1nncs1)N1c2ccccc2Sc2ccccc21,6904,6,4,3.6,7,-2,-2
CC(=NNC(=O)c1ccoc1C)c1ccc(Br)s1,·,·,0,-0.7,2,7,·
C#CCSc1ncc(S(=O)(=O)c2ccccc2)c(=O)[nH]1,4954,1,9,3.2,-2,8,-19
Cc1cccc(C(=O)NN/C=C/C(=O)c2ccccc2)c1,3992,-7,18,-1.6,9,10,-23
O=C(CCCN1C(=O)[C@H]2CC=CC[C@H]2C1=O)NCc1nc(-c2ccccc2)no1,5549,1,-1,-1.2,0,3,9
Cc1ccc(CN(C)C(=O)c2ccc(S(=O)(=O)N(C)c3ccccc3)cc2)o1,6153,·,5,4.4,8,-8,-25
CN(Cc1cccnc1)C(=O)c1cc(COc2ccc3c(c2)CCCC3)on1,5762,7,-6,5.1,16,14,-57
Cc1ccc2oc3nc(C)c(C(=O)O)cc3c(=O)c2c1,2297,22,2,3.6,·,·,-5
Cc1nc2ccc(Cl)cc2c(-c2ccccc2)c1C(=O)O,3138,-7,9,-3.8,7,-5,-34
CC(=O)c1ccc(-c2ccc(C(=O)N3CCN(c4ccc(F)cc4)CC3)o2)cc1,4626,-2,5,4.4,0,7,-33
CCNC(=O)CC1C(=O)N(c2ccc(F)cc2)C(=O)N1Cc1cccs1 (configuration not stated),4129,8,3,11,5,8,10
Cc1cccc(NC(=O)c2ccc(S(=O)(=O)N3CCCC3)cc2)c1C,3706,-9,-3,4.1,-11,-5,-20
O=C(Nc1ccc2c(c1)OCCO2)C(=S)NCc1ccccc1,4233,1,5,8.5,9,19,-21
O=C(COc1ccccc1Cl)N1CCN(c2ccc([N+](=O)[O-])c(N3CCOCC3)c2)CC1,5417,-17,5,0.7,12,13,-13
O=C(CN1CCOCC1)Nc1ncc(Cc2ccccc2Cl)s1,7842,-8,9,8.8,17,8,-30
O=C(CSCc1c(F)cccc1Cl)Nc1ccccc1C(=O)N1CCOCC1,4860,-4,1,1.7,3,8,10
CCOC(=O)C1CCN(/C=C2/C(=O)NC(=O)N(c3cccc(C)c3C)C2=O)CC1,2470,1,3,0.1,5,2,-28
CCc1ccccc1NC(=O)CSc1nc2ccccc2nc1N1CCOCC1,4412,-5,2,0.5,6,1,58*
COC(=O)c1ccc2[nH]ccc2c1,3833,-2,-2,1.7,3,15,-13
COc1ccc(Cl)cc1NC(=O)c1ocnc1C,10695,3,-6,0.4,5,5,-19
COc1cccc(Nc2ncccc2C(=O)O)c1,6781,-14,-5,8.1,8,6,-29
CCOCC(=O)Nc1ccc(S(=O)(=O)N2CCC(c3nc4ccccc4[nH]3)CC2)cc1,·,8,-7,-5.9,-6,0,-19
Oc1ccc(Cl)cc1CNc1cccc2cccnc12,3461,-14,73,-8.1,3,-2,-20
CCOC(=O)N/N=C/C(Cl)=C/c1ccccc1,3924,10,·,·,·,·,-48
CCOc1ccccc1NC(=O)c1cccc(S(=O)(=O)N(Cc2ccccc2)c2ccccc2OC)c1,2587,-17,3,4.5,-2,3,9
CCOC(=O)c1cn(Cc2cccc(Cl)c2)nn1,2065,-27,3,0.7,·,·,-87
CCC(C=NNC(=O)CCCCC(=O)NN=CC(CC)CC)CC,·,·,-7,-5.0,1,2,·
# The results go on.
SMILES,Autofluor counter,BJeLR lethal,ugtP null kill,Sa RN4220 lethal,Mtb hypoxia inh,Mtb hypoxia inh growth,PrP UTR inh
COc1ccc(C(=O)OCCOc2cccc(Cl)c2)cc1S(=O)(=O)N1CCOCC1,4619,-11,-3,0.5,9,8,1
CCC(C)c1ccc(NC(=O)c2cnn3c(C(F)F)cc(C)nc23)cc1 (configuration not stated),4953,7,-7,4.2,-10,8,-3
CNC(=O)c1sc(-c2cccs2)nc1C,4126,0,13,6.3,12,12,-13
O=C(CCSc1ccccn1)c1ccccc1,2631,-1,15,-1.2,13,6,-18
O=C(O)CNc1nc(-c2ccccc2)nc2ccccc12,9653,-3,-7,0.2,-1,1,-15
COC(=O)CC(=O)N1CCN(c2ccc(Cl)c(Cl)c2)CC1,4221,2,2,5.1,9,-2,8
Cc1oc(-c2ccccc2Cl)nc1Cn1cccc1C1=NC(c2ccccc2)CO1 (configuration not stated),3858,-4,19,-0.2,10,8,-16
CCCNC(=O)c1ccc(OC)cc1OC,6871,-3,10,7.6,5,2,-45
CC(=O)Nc1ccc(NC(=O)c2sc(-c3ccccc3)nc2C)cc1,3706,1,1,1.1,4,-1,-5

# Some of the entries above, reformatted:
# Value order – Autofluor counter | BJeLR lethal | ugtP null kill | Sa RN4220 lethal | Mtb hypoxia inh | Mtb hypoxia inh growth | PrP UTR inh
> CNC(=O)c1sc(-c2cccs2)nc1C
 : 4126 | 0 | 13 | 6.3 | 12 | 12 | -13
> CCC(C)c1ccc(NC(=O)c2cnn3c(C(F)F)cc(C)nc23)cc1 (configuration not stated)
 : 4953 | 7 | -7 | 4.2 | -10 | 8 | -3
> CC(=O)Nc1ccc(NC(=O)c2sc(-c3ccccc3)nc2C)cc1
 : 3706 | 1 | 1 | 1.1 | 4 | -1 | -5
> O=C(O)CNc1nc(-c2ccccc2)nc2ccccc12
 : 9653 | -3 | -7 | 0.2 | -1 | 1 | -15
> Cc1oc(-c2ccccc2Cl)nc1Cn1cccc1C1=NC(c2ccccc2)CO1 (configuration not stated)
 : 3858 | -4 | 19 | -0.2 | 10 | 8 | -16

# High-throughput results: PubChem, several laboratories
